Bioassay records as filed in PubChem BioAssay.
RanGTP-Imp inh: disruptors of Ran-importin-beta complex formation – biochemical, FRET, CFP-Ran, YFP-importin-beta, homogeneous, primary screen | hit rate 1.1% among 300,000 | cell-free CFP-Ran/YFP-importin-beta FRET ratio | inhibition, % (no concentration beside the values);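 active = most replicates above 15%; inconclusive = exactly half above 15%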;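 also: 0% = DMSO wells and 100% = Ran loaded with GDP instead of GTP; wells of about 40 µL received 100 nL stock; the first replicate is given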
Ecoli rRNA inh: selective bacterial rRNA inhibition in E. coli. E. coli WT GFP vs humanized-ribosome RFP mutants, fluorescence, 24 h; active compounds read low; DMSO median 0, no signal -100. GFP signal change (wild-type ribosome), % (concentration not given with the values). hit rate 1.6% among 350,000;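 active = significant combined selectivity score with lowered wild-type GFP, culture density cut under 30%, mutant RFP and density less affected; inactive = any of these conditions unmet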; also: one replicate is shown; some compounds called inactive have numbers as strong as hits
FGF22 binding: FGF22 (human) thermal shift binding; calls only at 9.99 µM; recombinant FGF22 thermal shift, SYPRO orange fluorescence; percent of sucrose octasulfate shift, DMSO zero; Q9HCT0; hit rate 1.5% among 340,000;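 active = melting point raised past a set limit in the mean and every replicate; inconclusive = no clear call; three in four hits are not shown here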
Target sequence (Q9HCT0 whole entry, looked up): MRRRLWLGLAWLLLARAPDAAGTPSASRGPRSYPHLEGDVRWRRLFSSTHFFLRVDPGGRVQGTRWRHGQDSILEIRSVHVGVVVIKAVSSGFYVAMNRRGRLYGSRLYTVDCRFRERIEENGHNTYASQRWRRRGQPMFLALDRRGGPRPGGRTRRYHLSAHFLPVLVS
Beta apoptosis: beta cell apoptosis inhibition; INS-1E cytokine-induced death, ATP luminescence, 48 h; percent of positive-control rescue, neutral wells zero; protection from apoptosis, % (test concentration not listed); hit rate 0.8% among 300,000; AID 435005;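 active = all replicates at 75% or more, or half of them and the mean; inconclusive = half reach 75% but not the mean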;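 also: 0% = cytokine-treated negative control wells and 100% = positive control rescue; higher means more ATP so stronger rescue from cytokine killing; wells of about 40 µL received 100 nL stock; the first replicate is given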
T cruzi inh: T. cruzi replication inhibition | T. cruzi beta-gal in NIH3T3, luminescence, 90 h | inhibition, % (test concentration not listed) | hit rate 1.4% among 300,000 | AID 1885;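 active = mean inhibition across valid replicates above about 55%, limit read from the data; inconclusive = mean below that limit but half or more replicates reach it; inactive = mean below it, under half of replicates reach it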;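 also: signal also drops with host cell toxicity which is not excluded here; 0% = plate median of DMSO wells and 100% = zero luminescence signal; higher percent means less beta-gal luminescence so fewer parasites; stock transfer was 50 nL into about 50 µL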
ALR inh: blocks human ALR sulfhydryl oxidase activity. P55789. purified ALR, DTT oxidation, H2O2 HRP-luminol luminescence. inhibition, % (concentration not given with the values). hit rate 3.8% among 290,000. AID 485317;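 active = mean and each replicate at 75% or more; inconclusive = only one of the two met; inactive = neither met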;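 also: stock transfer was 7.5 nL into about 7.5 µL; 0% = neutral wells and 100% = wells with inactivated enzyme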
Target sequence (P55789 whole entry, looked up): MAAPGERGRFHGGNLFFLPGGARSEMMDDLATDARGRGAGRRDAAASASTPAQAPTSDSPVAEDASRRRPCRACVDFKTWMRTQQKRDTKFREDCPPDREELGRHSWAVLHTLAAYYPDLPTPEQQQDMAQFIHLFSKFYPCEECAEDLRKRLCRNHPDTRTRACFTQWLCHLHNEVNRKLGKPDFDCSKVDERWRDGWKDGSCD
Calb FLC: affects C. albicans growth with fluconazole | AID 1979 | C. albicans CaCi-2 (fluconazole-resistant clinical isolate) + fluconazole, Alamar Blue growth, 48 h | growth inhibition, % (concentration not given with the values) | hit rate 0.57% among 300,000;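 active = most replicates above 75%; inconclusive = exactly half above 75%; inactive = most below 75%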;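 also: all wells also contain fluconazole at 8 µg/ml as a sub-toxic cotreatment; 0% = median of DMSO wells and 100% = median of geldanamycin control wells; wells of about 8 µL received 7.5 nL stock; the first replicate is given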
AF4-AF9 inh: inhibitors of human MLL-AF4/AF9 interaction; AlphaScreen, biotin-AF4 peptide binding to FLAG-AF9; P42568; inhibition, % at 10 µM; hit rate 0.47% among 350,000; AID 651704;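 active = every replicate reaching a set inhibition limit, whatever the replicate mean, cut at about 25% in these data; inconclusive = mean inhibition reaches that limit but some replicates miss it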;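 also: 0% = plate neutral control median and 100% = total signal loss; the record names both 10 and 1 µM as test concentration; the first replicate is given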
Target sequence (P42568 whole entry, looked up): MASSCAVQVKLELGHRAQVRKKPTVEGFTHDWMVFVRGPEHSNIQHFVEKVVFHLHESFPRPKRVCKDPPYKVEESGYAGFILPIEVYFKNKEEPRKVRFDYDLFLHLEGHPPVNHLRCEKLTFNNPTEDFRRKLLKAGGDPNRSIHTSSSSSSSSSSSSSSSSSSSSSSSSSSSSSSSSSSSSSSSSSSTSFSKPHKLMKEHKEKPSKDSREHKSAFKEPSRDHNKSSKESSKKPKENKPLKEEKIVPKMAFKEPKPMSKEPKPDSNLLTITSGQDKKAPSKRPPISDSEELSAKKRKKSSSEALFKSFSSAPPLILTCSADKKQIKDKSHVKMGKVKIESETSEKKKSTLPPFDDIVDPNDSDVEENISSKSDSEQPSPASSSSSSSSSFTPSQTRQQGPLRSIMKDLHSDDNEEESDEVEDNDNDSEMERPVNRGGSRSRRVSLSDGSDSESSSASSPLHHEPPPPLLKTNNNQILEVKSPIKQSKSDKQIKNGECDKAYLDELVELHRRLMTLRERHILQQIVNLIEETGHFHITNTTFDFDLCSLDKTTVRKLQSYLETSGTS
Ecoli rRNA inh OD600: also measured in Ecoli rRNA inh; calls as there; OD600 change, %; measured here: OD600 growth;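 optical density of the mix in the first replicate; 0 = DMSO median and -100 = no signal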
Ecoli rRNA inh RFP: also measured in Ecoli rRNA inh; calls as there; RFP signal change, %; measured here: RFP humanized mutant strains;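 first replicate; 0 = DMSO median and -100 = no signal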
* = called active by the depositor; i = inactive; ? = inconclusive; · = not tested or not shown; + = active, no number. The list is partial (hit frequency here may not be typical).

SMILES | RanGTP-Imp inh | Ecoli rRNA inh | Ecoli rRNA inh OD600 | Ecoli rRNA inh RFP | FGF22 binding | Beta apoptosis | T cruzi inh | ALR inh | Calb FLC | AF4-AF9 inh
COCCn1c(=NC(=O)/C=C/c2ccccc2Cl)sc2cc(NC(C)=O)ccc21 | 1.8 | · | · | · | · | 7.8 | 27.5 | -6.4 | 0.7 | ·
Cc1cccc(NC(=O)NCC2CC2)c1 | 6.3 | 9.0 | 10.7 | -0.4 | i | -1.9 | -9.3 | -1.8 | 2.4 | 0.7
COc1cccc(C(=O)Nc2cc(NC(=O)c3cccs3)ccc2C)c1OC | 0.4 | -19.5 | -22.5 | -1.4 | i | 0.5 | -14.8 | -0.8 | 1.0 | 0.3
COc1cc(NC(=O)CCn2c(=S)oc3ccccc32)cc(OC)c1OC | -3.2 | 17.0 | 15.0 | 2.2 | i | -1.8 | 4.3 | -14.9 | -12.7 | -0.4
O=S(=O)(NCc1cccnc1)c1cccn1-c1ncc(C(F)(F)F)cc1Cl | 0.6 | 0.9 | 3.0 | -2.9 | i | 6.4 | -23.1 | -0.6 | -4.3 | -6.4
O=C(NCC1CCCO1)c1ccc2c(=O)n(-c3ccccc3)c(=S)[nH]c2c1 (stereo not given) | -2.2 | 12.1 | 7.6 | 0.4 | i | -6.2 | -7.5 | -3.5 | ? | -3.2
COc1cc(CN2CCN(CCOCCO)CC2)cc(OC)c1OC | -1.0 | · | · | · | · | -5.8 | 14.5 | -4.3 | 11.0 | ·
Cc1ccc(N(CC(=O)N/N=C/c2ccc(OC3CSC3)cc2)S(=O)(=O)c2ccccc2)c(C)c1 | 0.5 | · | · | · | · | 3.2 | 9.5 | 15.8 | -10.2 | ·
Cc1cc(=O)[nH]c2c(C)c(Cl)ccc12 | -0.4 | · | · | · | · | 2.6 | 4.5 | -13.8 | 3.0 | ·
Cc1nnc(NC(=O)CSc2nnc(CC(=O)Nc3ccccc3C)n2C)s1 | 3.1 | · | · | · | i | -4.0 | -12.1 | 0.0 | -4.7 | 1.4

Part of the list above, reduced to ALR inh:
structure | ALR inh
COCCn1c(=NC(=O)/C=C/c2ccccc2Cl)sc2cc(NC(C)=O)ccc21 | -6.4
Cc1cccc(NC(=O)NCC2CC2)c1 | -1.8

Next section
SMILES | RanGTP-Imp inh | Ecoli rRNA inh | Ecoli rRNA inh OD600 | Ecoli rRNA inh RFP | FGF22 binding | Beta apoptosis | T cruzi inh | ALR inh | Calb FLC | AF4-AF9 inh
COc1cc(OC)cc(C(=O)N/N=C\c2ccoc2)c1 | -4.3 | 6.4 | 14.1 | -1.5 | i | -5.9 | 14.8 | -7.1 | 0.4 | -0.2
FC(F)(F)c1cc(N2CCN(Cc3ccccc3)CC2)c2ccccc2n1 | 1.5 | 11.4 | -3.8 | -1.5 | i | 9.6 | 15.6 | 0.8 | -6.6 | -0.4
CCCN(CCC)C(=O)CSc1nc2ccccc2c(=O)n1C1CCCC1 | 0.2 | · | · | · | · | 1.0 | 44.7 | -0.5 | 9.2 | ·
CCOc1ccc(Br)cc1S(=O)(=O)N1CCC(C(=O)O)CC1 | 2.2 | 5.9 | 1.7 | 0.4 | i | -2.9 | -15.5 | -9.2 | 10.9 | 1.9
O=C(c1cccnc1)N1N=C(c2cccs2)CC1c1ccc(F)cc1 (stereo not given) | 1.8 | -23.9 | -19.8 | -4.1 | i | 1.5 | 11.9 | · | -3.9 | 2.3
COc1ccc(OCc2nn3c(-c4cccc(OC)c4)nnc3s2)cc1 | 0.2 | · | · | · | · | -0.7 | -8.5 | -5.7 | 2.1 | ·
O=C(CNC(=O)c1ccc(N2C(=O)c3ccccc3C2=O)cc1)OCC(=O)c1cccc2ccccc12 | -4.0 | · | · | · | · | -26.7 | -11.0 | 4.9 | ? | ·
COc1ccc(NC(=O)CN2C(=O)NC(C)(c3ccccc3)C2=O)c(OC)c1 (stereo not given) | 6.6 | · | · | · | i | -0.3 | -0.7 | 3.9 | 7.9 | -2.4
COC(=O)c1ccc(-n2c(C)cc(/C=N/n3cnnc3)c2C)cc1 | -2.4 | · | · | · | · | -6.2 | 21.1 | -20.8 | 2.0 | ·
Nn1c(SCC(=O)NC2CCCCC2)nnc1-c1ccco1 | · | 5.0 | 6.1 | -2.2 | i | -7.0 | · | · | · | -3.5

Complete entries as entered above:
Results for COc1ccc(OCc2nn3c(-c4cccc(OC)c4)nnc3s2)cc1 : RanGTP-Imp inh = 0.2; Ecoli rRNA inh = ·; Ecoli rRNA inh OD600 = ·; Ecoli rRNA inh RFP = ·; FGF22 binding = ·; Beta apoptosis = -0.7; T cruzi inh = -8.5; ALR inh = -5.7; Calb FLC = 2.1; AF4-AF9 inh = ·
Results for COc1ccc(NC(=O)CN2C(=O)NC(C)(c3ccccc3)C2=O)c(OC)c1 (stereo not given) : RanGTP-Imp inh = 6.6; Ecoli rRNA inh = ·; Ecoli rRNA inh OD600 = ·; Ecoli rRNA inh RFP = ·; FGF22 binding = i; Beta apoptosis = -0.3; T cruzi inh = -0.7; ALR inh = 3.9; Calb FLC = 7.9; AF4-AF9 inh = -2.4

Remaining list, next part:
SMILES | RanGTP-Imp inh | Ecoli rRNA inh | Ecoli rRNA inh OD600 | Ecoli rRNA inh RFP | FGF22 binding | Beta apoptosis | T cruzi inh | ALR inh | Calb FLC | AF4-AF9 inh
O=[N+]([O-])c1ccc(-c2nc3ccc([N+](=O)[O-])cc3[nH]2)cc1 | 1.6 | · | · | · | · | ? | 33.2 | 2.4 | -0.6 | ·
O=C1CSC2=NCN(c3ccc4c(c3)OCO4)CN12 | ? | · | · | · | · | -4.7 | -2.0 | 2.0 | 2.6 | ·
CCOC(=O)c1sc(N)c(C(=O)Nc2ccccc2)c1C | 2.6 | -13.2 | -12.1 | -1.9 | i | -5.8 | -11.5 | -3.4 | 15.4 | -2.3
Cc1cccc(OCC(=O)NC(=S)Nc2ccccc2N2CCOCC2)c1C | -0.9 | 7.3 | 16.9 | 3.0 | i | -0.4 | -14.1 | -18.1 | 4.1 | -2.2
CCN(CC)S(=O)(=O)c1ccc2c(c1)N(CC(=O)Nc1ccc(NC(C)=O)cc1)C(=O)CO2 | 0.3 | 0.8 | 7.9 | 1.4 | i | -1.8 | -11.4 | -8.5 | 0.2 | -1.4
CCOC(=O)C1=C(CN2c3ccccc3CC2C)NC(=O)NC1c1ccccc1 (stereo not given) | 7.0 | · | · | · | · | 6.4 | 20.9 | 24.0 | 11.0 | ·
CCc1ccc(NC(=O)CC2C(=O)Nc3c2c(=O)n(C)c(=O)n3C)cc1 (stereo not given) | 3.4 | · | · | · | · | -10.9 | -8.2 | -1.0 | -1.6 | ·
NC(=O)CCCn1c(C(=O)c2ccc(Cl)cc2)c2ccc([N+](=O)[O-])cc2[n+]1[O-] | 5.2 | -0.7 | 7.9 | 3.7 | i | 38.7 | 36.7 | -56.4 | 43.4 | ·
COc1cc(S(=O)(=O)N2CCOCC2)ccc1F | 2.2 | · | · | · | · | -4.3 | -13.9 | -1.8 | -0.9 | ·
CCOc1ccccc1CNc1ncnc2ccc(-c3c(C)noc3C)cc12 | · | -50.0 | -75.5 | -18.1 | i | 34.5 | · | 2.1 | · | -7.1
COC(=O)c1cn(NC(=O)c2ccccc2[N+](=O)[O-])c(=O)c2ccccc12 | · | 12.1 | 10.6 | 0.7 | i | -4.5 | · | -3.4 | 7.9 | -0.9
Cc1cc(NC(=O)c2cccc3ccccc23)cc(C)c1OCC(=O)N1CCOCC1 | -7.2 | · | · | · | · | -2.9 | 13.5 | 0.1 | -18.9 | ·
Cc1nnc2sc(COc3ccccc3)nn2c1=O | -2.4 | 8.7 | 9.8 | -1.7 | i | -1.6 | -6.4 | · | 0.9 | -7.0
CCN(CCO)Cc1cc(=O)oc2c(C)c(C)ccc12 | 1.9 | 0.1 | 4.9 | -4.2 | i | -4.9 | -1.1 | -0.9 | 19.3 | 4.4
COCCOC(=O)c1c(C)n(C)c2ccc(OC(=O)c3ccccc3F)cc12 | 1.8 | -12.1 | -9.5 | 4.0 | i | 0.1 | -5.5 | -12.0 | -3.2 | -0.5
COC(=O)c1cc(S(=O)(=O)N2CCCCC2C)c[nH]1 (stereo not given) | -0.4 | -0.8 | 3.6 | -2.2 | i | 2.8 | -6.5 | -1.1 | -1.1 | -9.0
Cc1ccccc1NC(=O)C1CCCN1/C=C/C(=O)C(F)(F)F (stereo not given) | 8.5 | 25.4 | 21.0 | -3.5 | i | 1.3 | -15.6 | · | -6.4 | 4.6
CC(C)Cn1nc(C(=O)NCc2ccccc2CN2CCCC2)c2ccccc2c1=O | · | -1.3 | -3.9 | -0.1 | i | -3.4 | · | · | · | 2.5
CN(C)S(=O)(=O)c1cccc(NC(=O)C(c2ccccc2)c2ccccc2)c1 | 0.6 | 5.2 | 14.2 | 2.7 | i | 1.2 | 15.5 | -0.7 | -10.6 | 0.2
O=C(Oc1oc(-c2ccco2)nc1C=Nc1ccc(Cl)cc1)c1ccco1 | -1.0 | · | · | · | · | -1.1 | · | 12.6 | -3.8 | ·
NC(=O)c1ccccc1NC(=O)CC1(CC(=O)O)CCCC1 | -5.9 | 12.8 | 5.5 | -2.6 | i | -2.1 | -12.7 | -9.7 | -6.5 | 1.5
CCOC(=O)c1c(-c2ccccc2)csc1NC(=S)NC | -0.4 | · | · | · | · | 3.9 | 6.0 | -17.0 | ? | ·
O=C(CSc1nnc(Cn2c(=O)sc3ccccc32)n1-c1ccccc1)N1CCCC1 | · | 6.0 | 2.0 | -0.9 | i | -4.1 | · | -12.4 | · | 0.2
COC(=O)C(C)N1C(=O)S/C(=C\c2cc(C)n(-c3ccccn3)c2C)C1=O (stereo not given) | ? | · | · | · | · | -6.1 | -3.3 | 7.1 | 14.9 | ·
O=C(C[C@H]1C/C=C\C[C@H](Cc2ccc(F)cc2)C(=O)OC[C@@H]2CCCN2C1=O)N[C@H](CO)Cc1ccccc1 | · | -7.1 | -19.9 | 17.1 | i | 2.4 | · | -15.5 | · | 0.0
Cc1ccc(CNC(=O)CCc2nc(-c3cccs3)no2)cc1 | -0.9 | 7.0 | 5.0 | -1.6 | i | -0.3 | 5.4 | -5.9 | -16.4 | -5.5
COc1ccc(-n2c(SCC(=O)N3CCCC(C)C3)nnc2-c2cccnc2)cc1 (stereo not given) | -0.5 | · | · | · | · | 3.5 | -5.8 | 5.8 | 1.2 | ·
Cc1cc(NC(=O)CN2CCN(c3ccccn3)CC2)ccc1Br | 3.8 | -15.6 | -28.0 | -3.7 | i | -0.2 | 8.5 | -2.2 | 8.2 | -22.3
Nc1ccccc1N=Nc1ccccc1N | -25.6 | -1.7 | 1.0 | -14.7 | + | 3.2 | -27.6 | 87.5* | 14.6 | ?
CCn1c(C)c(C(C)=O)c(N2CCCC2)nc1=S | -1.0 | · | · | · | · | 0.8 | -9.3 | -10.3 | -1.3 | ·
O=C(CSc1ccc(-c2ccc(Cl)cc2)nn1)Nc1ccc2c(c1)OCCO2 | 1.1 | 8.1 | 0.0 | -4.7 | i | 2.6 | 17.3 | -21.6 | -16.9 | -19.6
